# Screening data as filed in PubChem BioAssay.
# GIV Gai3 FP: inhibitors of GIV GBA-motif binding to rat Galpha-i3. 0.42% of 210,000 active. Galpha-i3/FITC-GIV peptide fluorescence polarization, 90 min; hits give low values; scaled: aluminum fluoride 0%, vehicle 100%. P08753. percent of control (FP), % (no concentration beside the values);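 active = replicate mean at 85% of control or lower, very high polarization wells dropped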;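 note: wells of about 15 µL received 100 nL stock; the first replicate is given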
# Target sequence (P08753 whole entry, looked up): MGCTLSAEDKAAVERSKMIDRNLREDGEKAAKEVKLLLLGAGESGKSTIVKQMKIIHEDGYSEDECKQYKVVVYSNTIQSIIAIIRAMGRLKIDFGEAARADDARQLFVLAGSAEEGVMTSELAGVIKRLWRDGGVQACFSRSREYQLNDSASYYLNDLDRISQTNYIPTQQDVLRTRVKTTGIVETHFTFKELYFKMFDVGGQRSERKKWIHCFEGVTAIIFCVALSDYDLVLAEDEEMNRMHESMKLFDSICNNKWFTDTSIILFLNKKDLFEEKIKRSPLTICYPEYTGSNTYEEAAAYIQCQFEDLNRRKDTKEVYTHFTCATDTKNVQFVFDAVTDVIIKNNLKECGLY
# * marks the source's active call; other numbers are inactive results.
SMILES,GIV Gai3 FP
COc1cccc2cc(-c3csc(Nc4cc(C(F)(F)F)ccc4Cl)n3)c(=O)oc12,102
CCOC(=O)c1c(NC(=O)CSc2nnc3cc(C)c4ccccc4n23)sc(C)c1C,94
O=c1c([N+](=O)[O-])c(N2CCOCC2)c2ccccc2n1-c1ccccc1,103
CCOc1ccc(-c2nn(-c3ccccc3)cc2C2C(C(=O)OC)=C(C)NC(C)=C2C(=O)OC)cc1,103
CCSc1nc2ccc(NS(=O)(=O)c3ccc(F)cc3F)cc2s1,108
N#CC1(C#N)[C@H](c2ccccc2)[C@@H](C(=O)c2ccc(Cl)cc2)N2c3ccc(Cl)cc3C=C[C@@H]21,114
Cc1cc(C)c2c(c1)c(-c1ccccc1)c(-c1ccccc1)n2CC(O)Cn1nc(C)cc1C (stereo not given),100
Cc1ccc(NC(=O)c2cn(-c3cc(-c4noc(C)n4)ccc3C)nc2C)c(Br)c1,94
CCN1CCCn2nc(C3CCN(S(=O)(=O)c4cnc[nH]4)CC3)cc2C1=O,97
c1ccc(CN2CCN(Cc3ccccc3)C2c2cccc3ccccc23)cc1,110
Cc1ccc(Oc2ccc(-c3noc(-c4ccnn4C)n3)cc2)cc1,99
Fc1ccc(C2=CC(c3ccc(Cl)cc3)n3c(nc4ccccc43)N2)cc1 (stereo not given),111
CC(C)n1cnnc1C1CCCN(C(=O)c2ccsc2)C1 (stereo not given),103
Cc1oc(-c2ccccc2)nc1Cn1nnc(-c2nc(-c3cccc(Br)c3)no2)c1C,105
Cc1cc(C)cc(NC(=O)c2sc3nc(SCc4cccc([N+](=O)[O-])c4)n(CCc4ccccc4)c(=O)c3c2C)c1,109
Cc1c(C(=O)Nc2ccccc2C(F)(F)F)sc2nc(SCC(=O)C(C)(C)C)n(CCc3ccccc3)c(=O)c12,111
Cc1nn(C)cc1CN1CCCC1c1c(C)noc1C (stereo not given),108
Cc1nn(-c2ccc3nncn3n2)c(C)c1CCC(=O)Nc1ccc(F)cc1Cl,98
O=C(NCc1ccc(F)cc1)C1CCCN(c2ncnc3c2oc2ccccc23)C1 (stereo not given),104
Nc1cccc2c1NC(c1ccc(Cl)cc1)C1CCCC21 (stereo not given),111

# Single values from the results shown.
# `CC(C)n1cnnc1C1CCCN(C(=O)c2ccsc2)C1` (stereo not given) in GIV Gai3 FP: 103
# `Cc1nn(C)cc1CN1CCCC1c1c(C)noc1C` (stereo not given) in GIV Gai3 FP: 108

# (continued)
SMILES,GIV Gai3 FP
CC(=O)[C@@H]1SC(N)=C(C#N)[C@H]1c1cccs1,119
O=C(CN1C(=O)CSc2sc(S(=O)(=O)N3CCCC3)cc21)NCc1ccc2c(c1)OCO2,91
COc1cccc2c1OC13CCCCC1C2/C(=C(\C)O)C(=O)N3 (stereo not given),105
CCOC(=O)c1ccc(Cn2c3cc(Br)ccc3c3nn4cc(-c5ccc(F)cc5)nc4nc32)o1,121
COC(=O)c1ccc2c(=O)n(-c3cc(C)cc(C)c3)c(N3CCSC3)nc2c1,105
CC(=O)Nc1cccc(N2CC(C(=O)Nc3ccc4c(c3)OCCO4)CC2=O)c1 (stereo not given),100
O=[N+]([O-])c1cc2c(cc1C1N(Cc3ccccc3)CCN1Cc1ccccc1)OCO2,104
O=[N+]([O-])c1cc2c(cc1Br)-c1cc(Br)c([N+](=O)[O-])cc1S2(=O)=O,117
CC1(C)CC(=O)C2=C(C1)NC1=C(C(=O)c3ccccc31)C2c1ccc(F)cc1 (stereo not given),110
CC(=O)Nc1ccc(NC(=O)CSc2ncccc2C(=O)O)cc1,108
COc1ccc(CN=C2Nc3ccccc3NC23CCCCCC3)cc1,100
O=C(COc1ncnc2onc(-c3ccccc3)c12)NCc1ccccc1,100
CNC(=O)c1c(NC(=O)c2ccc(S(=O)(=O)N(C)C)cc2)sc2c1CCC2,101
O=C1C2C(c3ccc(F)cc3)OC3(C(=O)c4ccccc4C3=O)C2C(=O)N1c1ccc(Cl)c(Cl)c1 (stereo not given),113
O=C(NN1S(=O)(=O)c2ccccc2S1(=O)=O)c1cscn1,118
Cc1cccc(NC2=NC(=S)N(c3ccc(C)cc3Br)C23CCCCC3)c1,110
CCc1onc(C)c1C1CCCN1Cc1ccc(C)cc1 (stereo not given),106
N#CCC(=O)NN=C1CSc2sc(=S)sc2SC1,114
CCOC(=O)c1c(CBr)n(C)c2ccc(OS(=O)(=O)c3ccc(C)cc3)cc12,112
O=C1Nc2ccccc2Oc2ccc(S(=O)(=O)N3CCc4ccccc43)cc21,101

# Looked up by structure from the entries so far (5):
SMILES,GIV Gai3 FP
CCc1onc(C)c1C1CCCN1Cc1ccc(C)cc1 (stereo not given),106
COc1cccc2cc(-c3csc(Nc4cc(C(F)(F)F)ccc4Cl)n3)c(=O)oc12,102
O=[N+]([O-])c1cc2c(cc1Br)-c1cc(Br)c([N+](=O)[O-])cc1S2(=O)=O,117
c1ccc(CN2CCN(Cc3ccccc3)C2c2cccc3ccccc23)cc1,110
O=c1c([N+](=O)[O-])c(N2CCOCC2)c2ccccc2n1-c1ccccc1,103

# The listing continues:
SMILES,GIV Gai3 FP
Cc1ccc(N2C(=O)CSC23C(=O)Nc2ccccc23)cc1 (stereo not given),110
Cc1ccc(/C=C/C23NC(=O)CCN2c2ccccc2C3(C)C)cc1 (stereo not given),122
CC1=NN(c2ccc(Br)cc2)C(=O)/C1=C\c1ccc(N(C)C)c([N+](=O)[O-])c1,102
Cc1nc2ccccc2c(=O)n1-c1ccc(NC(=O)c2cc(F)ccc2F)cc1,104
CCOc1cccc2c1OC(c1ccc(OC)c(OC)c1)N1N=C(c3ccc(C)o3)CC21 (stereo not given),182
CCOC(=O)N1CCC2(CC1)N=C(c1cc(Cl)ccc1O)CC(c1ccc(F)cc1)N2 (stereo not given),111
Cc1ccn2cc(-c3ccc(S(=O)(=O)N4CCCCCC4)cc3)nc2c1,103
CC(C)CCCC(C)C1CCC2C3CC=C4CC(OC(=O)CC5CCCCC5)CCC4(C)C3CCC12C (stereo not given),106
CCC(=O)N1CCc2sc(C(=O)NCCN3CCCCC3)cc2C1,101
CCOC(=O)c1nnn(-c2nonc2N)c1CN1CCC(C(=O)OCC)CC1,115
Cc1cccc(-c2noc(-c3cccnc3N3CCC(C(=O)NCc4ccc5c(c4)OCO5)CC3)n2)c1,102
CCCCN(CCCC)c1ncnc2c1sc1nc(CCC)c3c(c12)CC(C)(C)OC3,101
COc1ccc(S(=O)(=O)Nc2cc(C(=O)NCc3ccccc3OC)ccc2N2CC3CC(C2)c2cccc(=O)n2C3)cc1 (stereo not given),117
CC1=C(C(=O)Nc2ccc(Cl)cc2)C(c2ccncc2)C(C#N)=C(SCC(=O)Nc2ccc(Cl)c(Cl)c2)N1 (stereo not given),105
Cc1noc(C)c1S(=O)(=O)N1CCC(C(C)C(=O)N2CCN(c3ccc(F)cc3)CC2)CC1 (stereo not given),102
O=C(NCc1ccc2c(c1)OCO2)C1CC(=O)N(c2ccc3c(c2)CCN3C(=O)C2CC2)C1 (stereo not given),99
Cc1cccc2nc(-c3ccccc3)c(-c3ccccc3)nc12,104
CCOC(=O)c1sc2ncnc(Nc3ccc(F)c(Cl)c3)c2c1C,100
Cc1nc(SCC(=O)Nc2ccc3ccccc3c2)c2c3c(sc2n1)CCC3,101
CCOC(=O)CSc1nc2cc(C(=O)N3CCN(C(=O)OCC)CC3)ccc2c(=O)n1Cc1ccccc1,123
CCOC(=O)c1ccc(-c2ccc(/C=C3\C(=O)N(c4ccc(S(N)(=O)=O)cc4)N=C3C(F)(F)F)o2)cc1,106
N#CC1=C(N)OC(c2ccccc2)=C(n2cncn2)C1c1ccc(Br)cc1 (stereo not given),115
O=c1n(Cc2cccc(F)c2)nc2c(S(=O)(=O)N3CCCC3)cccn12,104
Cc1ccccc1OCC(=O)Nc1ccc(SCc2nnc(-c3ccccc3)o2)cc1,101
CC(C)C(=O)N1CC(C)(C)c2cc(S(=O)(=O)Nc3ccc4c(c3)OCCO4)ccc21,105
C=CCN(CC=C)CC(O)CN(c1ccc(C)cc1)S(=O)(=O)c1ccc2ccccc2c1 (stereo not given),121
Cc1cc([N+](=O)[O-])ccc1N1C(=O)C2C3c4ccccc4C(C=O)(c4ccccc43)C2C1=O (stereo not given),116
CC(C)CNC(=O)N(C)CCc1noc(C(=O)NCc2ccc3c(c2)OCO3)n1,105
O=C(CCc1nc(-c2ccc(S(=O)(=O)N3CCCC3)cc2)no1)NC1CCCC1,104
CCOC(=O)COc1ccc(C(C2=C(O)CC(C)(C)CC2=O)C2C(=O)CC(C)(C)CC2=O)cc1 (stereo not given),110

# The final two records of the section above come first, to join the parts:
SMILES,GIV Gai3 FP
O=C(CCc1nc(-c2ccc(S(=O)(=O)N3CCCC3)cc2)no1)NC1CCCC1,104
CCOC(=O)COc1ccc(C(C2=C(O)CC(C)(C)CC2=O)C2C(=O)CC(C)(C)CC2=O)cc1 (stereo not given),110
CCOc1ccc(NC(=O)c2sc3nc(C)nc(N(CC)CC)c3c2C)cc1,108
O=C(c1cccc(Cl)c1)N1N=C(C(F)(F)F)CC1(O)C(F)(F)F (stereo not given),106
Cc1cccc(C(=O)Nc2cc(-c3ccccc3)nn2-c2ccccc2)c1,98
O=C(Nc1nc(C23CC4CC(CC(C4)C2)C3)cs1)c1c(O)c2cccc3c2n(c1=O)CCC3,106
Cn1nc(COCc2ccccc2)c2c1CCN(S(=O)(=O)c1cccc3nsnc13)C2,98
Cn1c(SCc2ccc(N3CCCC3=O)cc2)nc2cc(-c3ccccc3)sc2c1=O,103
CN1C(=S)SC(N2OC3C(=O)N(c4ccccc4)C(=O)C3C2c2ccc(Cl)cc2)C1(C)C (stereo not given),109
O=C(c1cccc(N2C(=O)C3C4C=CC(C4)C3C2=O)c1)N1CCN(c2ccccc2Cl)CC1 (stereo not given),107
Cc1cccn2cc(-c3ccc(S(=O)(=O)N4CCCCCC4)cc3)nc12,108
O=C(Nc1ccc(Cl)cc1)c1ccc(N2CC3CC(C2)c2cccc(=O)n2C3)c(NC(=O)c2c(F)cccc2F)c1 (stereo not given),110
CN1CCN(c2ccc(C3Nc4ccc5ccccc5c4C4=C3C(=O)CC(C)(C)C4)cc2[N+](=O)[O-])CC1 (stereo not given),109
Cc1cc(C2CCCN2C(=O)c2ccn(C)n2)on1 (stereo not given),101
Cc1nnc(NC(=O)CSc2nnc3ccc(-c4ccccn4)nn23)s1,99
Cc1[nH]nc2c1C1(C(=O)Nc3ccc(F)cc31)C(C#N)=C(N)O2 (stereo not given),103
CCC(=O)N1CCCC1C(=O)N1CCCN(C)CC1 (stereo not given),99
CCOC(=O)C1=C(C)N=c2s/c(=C/c3cc(OC)c(OC)cc3OC)c(=O)n2C1c1cccs1 (stereo not given),112
COCCCn1c(SCc2nc(-c3ccc4c(c3)OCO4)no2)nc2cc3c(cc2c1=O)OCO3,102
COc1ccc(-c2noc(CSc3nc4cc(-c5ccccc5)sc4c(=O)n3C)n2)cc1OC,102
CCOC(=O)CC(=O)CSc1nc(N)c(C#N)c(-c2cccs2)c1C#N,110
COC(=O)c1c(-c2cccc(Cl)c2)noc1N1CCCC1,106
CCCCCCN1C(=O)C(=O)/C(=C(\O)c2ccccc2)C1c1ccccc1OC (stereo not given),109
CC1CCN(S(=O)(=O)c2cc3c(cc2Cl)Oc2ccccc2NC3=O)CC1,103
COc1ccc(Cl)cc1Nc1ncnc2c1cnn2-c1ccc(Cl)cc1,107
CCc1nc(-c2csc(S(=O)(=O)N3CCCC(C(=O)N4CCc5ccccc54)C3)c2)no1 (stereo not given),105
CC1(C)Cc2nc3c(N)n[nH]c3cc2CO1,111
O=C1CCCC(O)=C1C1=NC2(CCCCCC2)Cc2ccccc21,103
COc1ccc(C(=O)N2CCN(Cc3noc4ccccc34)CC2)cc1,105
Cc1ccc(-n2ccc(=O)c(-c3nc(-c4cccc(C)c4)no3)n2)cc1,101
COc1cccc2cc(-c3nnc(Nc4cc(C(F)(F)F)ccc4Cl)s3)c(=O)oc12,108
O=C(Nc1ccc(OC(F)(F)F)cc1)c1cc([N+](=O)[O-])ccc1N1CCN(Cc2ccccc2)CC1,103
CCC(C)NS(=O)(=O)c1cc(-c2nc(C)cs2)n(CC(=O)N2CCCC2)c1 (stereo not given),109
O=C(Cn1c(=O)nc2c3c4c(sc3ncn21)CCCC4)NC1CCCC1,105
CC(C)n1nc2c(S(=O)(=O)N3CCc4ccccc4C3)cccn2c1=O,109
CCN1C(=O)OC2(CCCCC2)C1(C)O (stereo not given),113
Cc1nn(-c2nc3ccc(Br)cc3s2)c2c1C(c1ccc(F)cc1)CC(=O)N2 (stereo not given),100
O=C1C2C(c3ccc(F)cc3F)OC3(C(=O)c4ccccc4C3=O)C2C(=O)N1c1ccc(Cl)cc1 (stereo not given),117
CC(=O)N1CC(C)Oc2ccc(S(=O)(=O)N3CCCN(c4nc5cccnc5s4)CC3)cc21 (stereo not given),106
COc1ccc(C2/C(=C(\O)c3ccc(Br)cc3)C(=O)C(=O)N2c2ccccn2)cc1 (stereo not given),106
COc1ccc(N2C(=O)CSC2c2ccccc2Br)cc1Cl (stereo not given),105
CCOC1CCN(C(=O)NC(C)C)CC1,101
CC(=O)Nc1ccc(N2C(=O)CS(=O)(=O)C2c2ccccc2[N+](=O)[O-])cc1 (stereo not given),107
COc1ccc(NC(=O)CCS(=O)(=O)c2ccc3c(c2)NC(=O)CCS3)c(OC)c1,104
COc1cc(-c2[nH]nc3c2C(c2ccc4c(c2)OCO4)C(C#N)=C(N)O3)cc(OC)c1OC (stereo not given),105

# Three compounds out of the list, sorted by number of heavy atoms, low to high:
SMILES,GIV Gai3 FP
CCN1C(=O)OC2(CCCCC2)C1(C)O (stereo not given),113
CC(C)n1nc2c(S(=O)(=O)N3CCc4ccccc4C3)cccn2c1=O,109
O=C1C2C(c3ccc(F)cc3F)OC3(C(=O)c4ccccc4C3=O)C2C(=O)N1c1ccc(Cl)cc1 (stereo not given),117

# Not all compounds are listed. The share of hits here may be higher or lower than overall.
